High-throughput results (PubChem)
D2 ag: human D2 receptor agonism in beta-arrestin assay; DiscoveRx PathHunter D2 beta-arrestin, luminescence, 90 min; 100% = 57 uM dopamine signal; activation, % (test concentration not listed); 360,000 compounds, 0.084% hits; in the data active = activation above about 40%; inconclusive = about 15% to 40%; inactive = below about 15%; further: compound concentration not given in the record; the text of the record calls up to 30% inactive
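Agonist mode: compounds alone added to overnight-plated D2 PathHunter cells for 90 min at 37 C, with 57 uM final dopamine (EC100) defining full response. Beta-arrestin recruitment detected by chemiluminescent reagent, read after 1 h at ambient temperature.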
D2 PAM: potentiates the human D2 dopamine receptor allosterically; P14416; DiscoveRx D2 beta-arrestin cells, luminescence, 90 min; 100% = 57 uM dopamine signal; potentiation, % (no concentration beside the values); 360,000 compounds, 0.23% hits; AID 624464; active = potentiation of 50% or more; inconclusive = 30% to 50%; inactive = 30% or less;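 further: compound concentration not given in the record; tested on top of an EC20 dose of dopamine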
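D2 cells co-treated with compound plus 50 nM dopamine (EC20) for 90 min at 37 deg C to detect potentiation. Beta-arrestin recruitment was read as enzyme-fragment luminescence after 1 h at ambient temperature. Full response was set by 57 uM dopamine.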
Six1-Eya2 inh: inhibitors of human Six1/Eya2 interaction; Q15475+O00167; AlphaScreen GST-Six1/His-Eya2 binding, biochemical; stronger effect = lower value; control for the full effect not named in the record; activity change, % (concentration not given with the values); 360,000 compounds, 0.56% hits; AID 651725; in the data active = activity change below about -65%; inconclusive = about -30% to -65%; inactive = above about -30%; further: on the % scale 0 is the no-effect control and ±100 the full control effect
Target sequence (O00167 whole entry, looked up): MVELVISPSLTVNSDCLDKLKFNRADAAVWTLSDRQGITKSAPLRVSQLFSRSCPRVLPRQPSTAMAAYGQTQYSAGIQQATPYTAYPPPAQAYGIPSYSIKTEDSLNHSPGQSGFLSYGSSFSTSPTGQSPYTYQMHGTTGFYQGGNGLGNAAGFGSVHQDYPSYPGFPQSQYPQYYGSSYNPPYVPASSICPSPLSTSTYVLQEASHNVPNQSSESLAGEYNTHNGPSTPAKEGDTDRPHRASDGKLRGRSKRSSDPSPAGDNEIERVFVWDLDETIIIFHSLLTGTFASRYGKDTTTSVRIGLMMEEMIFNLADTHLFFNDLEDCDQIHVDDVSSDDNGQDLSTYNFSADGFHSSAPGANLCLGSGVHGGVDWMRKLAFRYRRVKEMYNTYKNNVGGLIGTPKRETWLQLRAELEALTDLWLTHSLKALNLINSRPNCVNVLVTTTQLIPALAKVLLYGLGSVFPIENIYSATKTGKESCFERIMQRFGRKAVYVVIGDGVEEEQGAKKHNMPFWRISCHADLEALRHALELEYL
Target sequence (Q15475 whole entry, looked up): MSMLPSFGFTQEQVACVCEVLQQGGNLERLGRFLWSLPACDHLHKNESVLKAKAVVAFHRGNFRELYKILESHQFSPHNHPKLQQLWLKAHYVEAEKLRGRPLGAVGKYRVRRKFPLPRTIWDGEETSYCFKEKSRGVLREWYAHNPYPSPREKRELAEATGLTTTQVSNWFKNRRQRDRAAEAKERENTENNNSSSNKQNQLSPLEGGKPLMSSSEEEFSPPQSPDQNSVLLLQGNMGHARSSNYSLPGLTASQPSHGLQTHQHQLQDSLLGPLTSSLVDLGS
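GST-Six1 + His-Eya2 (5X stock: 250/500 nM); Tris pH 8.0, 300 mM NaCl, 0.05% BSA, 0.02% Tween 20; GSH donor/Ni acceptor beads; 1 h 37 °C dark; AlphaScreen readout.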
TRPV1 PAM: enhances activation of the human vanilloid receptor TRPV1; Q8NER1; AID 540277; TRPV1-expressing cells, Fluo-8 calcium influx, capsaicin EC20 potentiation; host cell line not named in the record; control for the full effect not named in the record; 320,000 compounds, 0.02% hits; potentiation, % at 8.33 µM; active means potentiation above 80%; inconclusive means 30% to 80%; inactive means below 30%; further: 0% is about no effect
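Cells expressing TRPV1 were dye-loaded with Fluo-8 and read kinetically: 10 s baseline, 3 min after compound (agonist portion), then 2 min after EC20 capsaicin (allosteric enhancer portion). Calcium-bound dye fluorescence at 480/520 nm.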
CtBP-E1A blk: CtBP/E1A binding inhibition; activity change, % (test concentration not listed); AlphaScreen GST-E1A/His-CtBP binding, 1536-well; stronger effect = lower value; control for the full effect not named in the record; 340,000 compounds, 0.49% hits; in the data active means activity change below about -65%; inconclusive means about -30% to -65%; inactive means above about -30%; further: on the % scale 0 is the no-effect control and ±100 the full control effect
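In 5 uL wells, 23 nL compound meets equimolar GST-E1A and His-CtBP (5X stock 125 nM each) for 2 h, 37 °C. Beads (5X, 50 ug/mL) then 1 h, 37 °C, dark.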
Sfp inh: Sfp phosphopantetheinyl transferase inhibition. Q9F4F7. Biochemical Sfp PPTase activity, qHTS. Potency, µM, for inactives: max response, negative = inhibition, usual class: inhibitors. 310,000 compounds, 3.5% hits. AID 1490; active means well fitted inhibition curve with a large enough effect; inconclusive means small, poorly fitted or top-dose-only effect, or another doubt; inactive means no such curve, though single readings can be large or run the other way;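 further: the enzyme is Sfp with the accession as filed and its product quenches rhodamine fluorescence; potency means the concentration at half of the fitted maximal effect; 0% = enzyme reaction without inhibitor and -100% = no enzyme wells; top concentration of the series not given in the record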
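After 15 min at room temperature with compound, 15 nM Sfp received 5 uM rhodamine-CoA plus 12.5 uM BHQ-2-ybbR (50 mM Hepes pH 7.6, 10 mM MgCl2). Rate came from the fluorescence difference over 30 min, ex 525/em 598 nm.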
PINK1 expr mod: changes PINK1 expression | PINK1 immunofluorescence, high-content cytometry, 24 h | Potency, µM (titrated, usually from 76.6 µM), for the others: at the top dose activation (PINK1 increase), actives largely listed as activators | 410,000 compounds, 0.2% hits | AID 624263; active = well fitted activation curve with a large enough effect; inconclusive = small, poorly fitted or top-dose-only effect; inactive = flat fitted curve, though single readings scatter; cell line not stated here;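 further: potency means the concentration at half of the fitted maximal effect; % of control where 0% means no effect; nearly all actives have a fitted effect of over 65% in size; a mitochondrial uncoupler was the plate control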
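Compound titrations (5 concentrations, 24 h) on a stable cell line; DMSO and CCCP controls. Endpoint: fixed-cell PINK1 immunofluorescence with mitochondrial, cell and nuclear markers, scanned by microplate cytometer.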
* hit, by the source's call; ? = inconclusive; · = no result given; [ ] = another dose, or the depositor's remark.

SMILES	D2 ag	D2 PAM	Six1-Eya2 inh	TRPV1 PAM	CtBP-E1A blk	Sfp inh	PINK1 expr mod
NS(=O)(=O)c1cccc(NC(=O)CSc2ncnc3ccccc23)c1	-3.8	-9	-1	2	-10	9%	-1.0%
COc1ccc(N2C(=O)CSC2c2ccc3c(c2)OCO3)cc1 (centres undefined)	0.1	-10	-1	-8	-6	4%	-1.8%
CC1(C)CSC(=NCCc2ccccc2)N1	0.0	-7	-1	-3	2	-6%	4.2%
COc1cccc(C(O)c2nccn2Cc2ccccc2)c1OC (centres undefined)	2.4	-6	6	19	·	15%	0.7%
C[C@@H]1CN([C@H](C)CO)C(=O)CCCn2nncc2CO[C@H]1CN(C)Cc1ccccc1	-7.7	-2	0	·	-21	·	0.7%
COc1ccc(C(=O)Nc2ccccc2N2CCOCC2)cc1S(=O)(=O)N1CCCC1	0.7	15	-1	-6	-3	·	0.7%
O=C(Nc1cccc(NC(=O)c2sc3ccccc3c2Cl)c1)c1ccco1	-4.3	-11	-4	5	-6	-29%	5.6%
CCOC(=O)C1CCN(Cc2nnnn2CCc2ccccc2)CC1	1.3	7	12	0	9	-13%	-1.2%
CCC1C(=O)NCCN1C(=O)c1cc(COc2cc(C)ccc2C)on1 (centres undefined)	6.0	-2	0	11	4	1%	1.5%
O=C(CSc1ccc(Br)cc1)NCC1(N2CCCCC2)CCCCC1	-3.8	-14	1	·	-1	·	-5.5%
Cc1nn(CCC(N)=O)c2nc(-c3cccs3)cc(C(F)(F)F)c12	-6.1	-7	14	26	-3	-5%	-1.2%
Cn1cc(/C=C/C(=O)N2CCCC(C(=O)c3cccc4ccccc34)C2)cn1 (centres undefined)	0.9	2	7	-5	6	7%	0.1%
Cc1ccc(O)c(C(=O)CC(=O)c2ccc(Cl)cc2)c1	-1.5	-13	-16	-8	-18	27%	9.3%
CCOc1ccccc1NC(=S)N1CCN(c2nc(-c3cccc(OC)c3)cs2)CC1	7.0	-91	-25	5	·	-24%	0.5%
CCN(CC)S(=O)(=O)c1ccc2c(c1)N(CC(=O)N(CCc1ccncc1)C(C)C)C(=O)CO2	2.6	-11	7	3	·	24%	-0.3%
CC[n+]1c(/C=C/c2ccc(N(C)C)cc2)ccc2ccccc21	-9.5	-32	-27	1	-12	-28%	?
O=C(CN1CCN(c2ccccc2F)CC1)Nc1ccc2c(c1)CCC2	3.9	-1	-1	-20	4	?	0.7%
CN(C)c1ccc(C(CNS(=O)(=O)c2cccc([N+](=O)[O-])c2)N2CCOCC2)cc1 (centres undefined)	0.3	-16	-19	-7	-21	·	-0.2%
O=C(CSc1nnc(Nc2ccccc2)s1)NCC1CCCO1 (centres undefined)	-2.0	2	-18	-6	·	·	-0.2%
O=C(CC12CC3CC(CC(C3)C1)C2)N/N=C\c1ccc[nH]1	0.0	-10	-9	-25	7	1%	-0.9%
O=C(CSc1nnc(C2CC2)n1-c1ccccc1)NC1CCS(=O)(=O)C1 (centres undefined)	-2.0	-11	12	·	·	·	5.4%
Cc1nn(C)c(C(=O)NNC(=S)NCc2ccco2)c1Br	-7.6	-9	11	10	·	-25%	1.6%
O=C(NNC(=O)c1cc(Br)c(Br)s1)c1csc(N2CCOCC2)n1	0.7	29	-4	2	2	·	5.3%
COc1ccccc1NC(=O)c1ccc(NC(=O)CN2CCCC2)cc1	1.7	5	5	-6	-2	18%	-1.8%
O=C(/C=C/Nc1ccc(F)cc1F)c1ccc(Br)cc1	-5.3	-11	10	·	4	·	-0.3%
COc1ccc(-c2ccc(-c3noc(-c4ccccc4F)n3)c(OC)n2)cc1	-3.9	-7	5	6	27	1%	14%
Cc1nn(-c2ncc(C(F)(F)F)cc2Cl)c(=O)n1-c1ccccc1F	-4.5	-7	7	-5	-7	10%	-0.1%
CCOC(=O)C1CCCN(C(=O)c2ccc3oc(Cc4ccccc4)nc3c2)C1 (centres undefined)	-0.5	-10	0	10	·	15%	2.9%
CC(=O)Nc1nc(C)cs1	2.8	0	2	2	5	13%	-0.9%
COc1ccc(O)c(/C=N/c2sc(C)c(C)c2C#N)c1	5.7	1	-11	-4	-1	?	3.3%
O=C(Nc1cc(S(=O)(=O)N2CCOCC2)ccc1N1CCOCC1)c1cccs1	0.5	0	-2	-9	10	·	-0.1%
COc1ccc2c(c1)OC[C@H]1[C@H]2N2C(=O)[C@H](C)NC(=O)[C@@]2(C)[C@H]1c1ccccc1	-2.5	-5	0	1	0	·	-0.4%
O=[N+]([O-])c1ccc(OCc2n[nH]c(=S)n2-c2ccccc2)cc1	7.1	-5	5	5	7	-7%	-0.4%
CCn1c(SCC(=O)N2CCN(c3ccccc3F)CC2)nnc1-c1ccoc1C	1.2	15	-3	-3	-1	3%	-1.1%
Cc1cccc(-c2cc3nc(C)cc(NCCCn4ccnc4)n3n2)c1	0.0	-3	?	3	?	-5%	-1.5%
CCOC(=O)c1cnc(-c2ccccc2)nc1Oc1ccc(OC)cc1	-2.0	0	1	-2	6	-14%	0.0%
Cc1ccc2nc(N3C(=O)C(O)=C(C(=O)c4ccc(C)o4)C3c3cccc(O)c3)sc2c1 (centres undefined)	-3.7	-6	-5	-4	-1	-24%	9.9%
O=C(Cc1cccc(C(F)(F)F)c1)NCc1cccnc1	2.4	-4	3	-17	13	24%	-0.1%
COc1ccc(Nc2nnc(SCC(=O)NC3CCS(=O)(=O)C3)s2)cc1 (centres undefined)	-6.8	-69	-13	-1	2	·	-4.7%
COc1ccccc1NC(=O)CSc1nnc(CCNC(=O)c2ccc(C)cc2)n1C	-2.7	14	-24	2	·	10%	2.2%
CCN(CC)C(=O)c1sc(NC(=O)c2c(OC)cccc2OC)c(C#N)c1C	2.5	-7	-5	2	-16	-4%	2.6%
CCc1nnc(NC(=O)CSc2nnc(-c3ccco3)n2CC)s1	1.3	-10	13	27	35	6%	6.9%[38.3 µM]
C=C(C)CNC(=S)N/N=C1\CCCCc2ccccc21	-0.1	-16	-15	18	-28	2%	0.3%
CC(C)C(=O)N1C2CCC1CC(O)(c1ccc(F)cc1)C2 (centres undefined)	-0.6	-13	5	6	0	16%	-5.1%
O=C(COC(=O)c1ccc(S(=O)(=O)N2CCOCC2)cc1)NCc1ccccc1	1.6	3	-1	·	11	·	0.0%
Nc1nc(=S)[nH]c2c1C1(CCCCC1)Cc1ccccc1-2	0.8	-5	10	14	-15	11%	7.0%
O=[N+]([O-])c1ccc(S(=O)Cc2ccccc2)c([N+](=O)[O-])c1 (centres undefined)	1.6	-20	?	·	-23	·	-7.2%
CC1(C)Cc2nc(NCCN3CCOCC3)c(C#N)cc2CO1	-1.6	8	1	1	4	-2%	-0.3%
CC(C)Cc1nnc(NC(=O)CSc2nc(N)cc(=O)[nH]2)s1	-1.8	-3	3	12	2	-8%	0.2%
CC(=O)c1ccc(NC(=O)c2sc3nc(N4CCOCC4)c4c(c3c2N)CCCC4)cc1	-6.8	-6	7	27	·	?	5.0%
COc1cccc(-n2cnc3scc(-c4cccs4)c3c2=O)c1	1.4	-7	1	1	2	-4%	1.6%
O=C(CSc1nnc(-c2ccco2)n1Cc1ccco1)N1CCOCC1	-1.8	0	3	-25	6	-4%	-3.6%[38.3 µM]
COc1cccc(CNC(=O)c2cccnc2Sc2ccc(C)cc2C)c1	2.9	-8	2	11	-12	15%	-0.1%
CCCS(=O)(=O)N1CCC(C(=O)NC2CCCCC2C)CC1 (centres undefined)	-5.1	-23	9	2	4	2%	3.3%
COc1cc(C(=O)CCN2CCC(c3ccccc3)C2)cc(OC)c1OC (centres undefined)	-3.7	-39	4	-8	0	-17%	7.5%
Cc1cc(-c2n[nH]c(=S)n2CC(C)C)cs1	-0.9	-9	-5	3	5	2%	-1.4%
CNS(=O)(=O)c1ccc2nc(NC(=O)/C=C/c3ccco3)sc2c1	1.6	-9	0	6	2	-90%	?
COc1ccc(NC(=O)CCCn2c(=O)c3sccc3n(Cc3ccc(C)cc3)c2=O)cc1	-3.4	9	10	3	-5	-7%	?
CCc1ccnc(NS(=O)(=O)c2ccc3c(c2)OCCO3)c1	-9.9	-3	9	0	7	1%	0.7%
CCc1noc(C)c1C(=O)N1CCC(CCC(=O)Nc2cccc(C)c2)CC1	0.0	2	5	-26	-5	-3%	0.1%

(next part)
SMILES	D2 ag	D2 PAM	Six1-Eya2 inh	TRPV1 PAM	CtBP-E1A blk	Sfp inh	PINK1 expr mod
O=C(Nc1ccc2[nH]c(=S)sc2c1)Nc1ccccc1F	7.0	-5	?	-14	·	?	2.0%
CN(C)S(=O)(=O)c1cc(NC(=O)CSc2cccc[n+]2[O-])ccc1Cl	-4.9	-5	3	1	-9	·	-0.1%
CCCCCC(=O)NC(=S)NNC(=O)c1ccc([N+](=O)[O-])cc1	4.5	21	-1	25	0	?	0.2%
CCCCC(=O)NC(c1ccc(OC)c(OC)c1)c1ccc2cccnc2c1O (centres undefined)	13	1	-90*	·	-94*	·	2.0%
COc1cccc(C(=O)NNC(=O)CCN2CCN(c3ccccc3)CC2)c1	11	-12	10	·	2	·	0.3%
CCNc1nc(Oc2c(Cl)cccc2Cl)cc(C(F)(F)F)n1	-1.8	-3	10	·	17	23%	12%
O=C(C(Cl)Cl)N1CCN(Cc2ccccc2)CC1	-3.1	-30	1	-8	2	0%	-1.3%
CN1CCN(CCC(=O)Nc2cccc(F)c2)CC1	-2.8	1	23	2	0	11%	6.6%[38.3 µM]
CCCC(C)C(=O)Nc1ccc(F)c(Cl)c1 (centres undefined)	-2.0	-10	5	-16	0	11%	3.5%
CCOC(=O)C1=C(C)NC(=O)NC1c1ccsc1 (centres undefined)	1.7	6	7	3	4	9%	-0.4%
NC(=O)c1nsc(C(=O)N(Cc2ccco2)C(C(=O)NCc2ccc(F)cc2)c2ccc(O)cc2)c1N (centres undefined)	?	25	3	?	-10	-1%	-0.5%

Whole records, looked up by structure.
CCCC(C)C(=O)Nc1ccc(F)c(Cl)c1 (centres undefined) in the list: D2 ag: -2.0; D2 PAM: -10; Six1-Eya2 inh: 5; TRPV1 PAM: -16; CtBP-E1A blk: 0; Sfp inh: 11%; PINK1 expr mod: 3.5%
O=C(C(Cl)Cl)N1CCN(Cc2ccccc2)CC1 in the list: D2 ag: -3.1; D2 PAM: -30; Six1-Eya2 inh: 1; TRPV1 PAM: -8; CtBP-E1A blk: 2; Sfp inh: 0%; PINK1 expr mod: -1.3%

Quoted from the listing.
NS(=O)(=O)c1cccc(NC(=O)CSc2ncnc3ccccc23)c1 in PINK1 expr mod reads -1.0%
CCc1noc(C)c1C(=O)N1CCC(CCC(=O)Nc2cccc(C)c2)CC1 in D2 ag reads 0.0
COc1cccc(C(=O)NNC(=O)CCN2CCN(c3ccccc3)CC2)c1 in D2 PAM reads -12
